# Bfl-1 A1 inh: inhibitors of the anti-apoptotic protein A1, read as caspase activation; MEF A1-2A-BIM cells, Caspase-Glo 3/7 luminescence, 3 h; percent of clofoctol response, vehicle zero; caspase activation, % (no concentration beside the values); hit rate 0.066% among 330,000; AID 2462;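 active = over half of replicate activation scores above 10%, or exactly half above 10 with the replicate mean above 10; inconclusive = replicate mean below 10 yet half the replicates above 10; inactive = over half of replicates below 10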;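 note: wells of about 30 µL received 50 nL stock; many hits fall short of the cut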
# Beta cell apopt: blocks beta cell apoptosis. hit rate 0.8% among 300,000. protection from apoptosis, % (no concentration beside the values). INS-1E cytokine-induced death, ATP luminescence, 48 h; percent of positive-control rescue, neutral wells zero;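 active = all replicates at 75% or more, or half of them and the mean; inconclusive = half reach 75% but not the mean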;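 note: 0% = cytokine-treated negative control wells and 100% = positive control rescue; higher means more ATP so stronger rescue from cytokine killing; wells of about 40 µL received 100 nL stock; the first replicate is given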
# ALR inh: inhibitors of human sulfhydryl oxidase ALR. inhibition, % (concentration not given with the values). hit rate 3.8% among 290,000. P55789. AID 485317. purified ALR, DTT oxidation, H2O2 HRP-luminol luminescence;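 active = mean and each replicate at 75% or more; inconclusive = only one of the two met; inactive = neither met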;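 note: stock transfer was 7.5 nL into about 7.5 µL; 0% = neutral wells and 100% = wells with inactivated enzyme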
# Target sequence (P55789 whole entry, looked up): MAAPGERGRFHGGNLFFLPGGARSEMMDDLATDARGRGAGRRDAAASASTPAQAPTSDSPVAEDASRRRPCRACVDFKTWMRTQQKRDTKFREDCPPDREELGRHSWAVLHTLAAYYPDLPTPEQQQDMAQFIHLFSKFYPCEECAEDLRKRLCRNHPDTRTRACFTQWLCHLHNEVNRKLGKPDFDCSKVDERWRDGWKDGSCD
# Calb FLC: C. albicans growth modulation with fluconazole | C. albicans CaCi-2 (fluconazole-resistant clinical isolate) + fluconazole, Alamar Blue growth, 48 h | growth inhibition, % (concentration not given with the values) | hit rate 0.57% among 300,000 | AID 1979;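 active = most replicates above 75%; inconclusive = exactly half above 75%; inactive = most below 75%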;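 note: all wells also contain fluconazole at 8 µg/ml as a sub-toxic cotreatment; 0% = median of DMSO wells and 100% = median of geldanamycin control wells; wells of about 8 µL received 7.5 nL stock; the first replicate is given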
# LANA-H2A inh: blocks KSHV LANA binding to histone H2A/H2B; hit rate 0.6% among 320,000; cell-free LANA-H2A/H2B peptide, fluorescence polarization; inhibition, % (no concentration beside the values); Q9QR71; in the data active = inhibition mostly above about 10%, no sharp cut-off; inactive = mostly below about 6.7%;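 note: stock transfer was 7.5 nL into about 10 µL; 0% = median of vehicle wells and 100% = median of positive control wells; one replicate is shown; the record names a cut of 25% in any replicate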
# T cruzi repl: blocks replication of Trypanosoma cruzi. T. cruzi beta-gal in NIH3T3, luminescence, 90 h. inhibition, % (concentration not given with the values). hit rate 1.4% among 300,000. AID 1885;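 active = mean inhibition across valid replicates above about 55%, limit read from the data; inconclusive = mean below that limit but half or more replicates reach it; inactive = mean below it, under half of replicates reach it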;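 note: signal also drops with host cell toxicity which is not excluded here; 0% = plate median of DMSO wells and 100% = zero luminescence signal; higher percent means less beta-gal luminescence so fewer parasites; stock transfer was 50 nL into about 50 µL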
# Beta2AR agonist: activates human beta-2 adrenergic receptor causing internalization | P07550 | Am2.2-beta2AR cells, FAP receptor internalization, flow cytometry; reference of the scale not given here | response, % (concentration not given with the values) | hit rate 0.43% among 340,000 | AID 504454;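 active = response above a set limit, near 3 SD of response in nonfluorescent compounds, cut at about 42% in these data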;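 note: stock transfer was 100 nL into about 11 µL; a reference agonist was the positive control; negative values mostly stem from fluorescent compounds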
# Target sequence (P07550 whole entry, looked up): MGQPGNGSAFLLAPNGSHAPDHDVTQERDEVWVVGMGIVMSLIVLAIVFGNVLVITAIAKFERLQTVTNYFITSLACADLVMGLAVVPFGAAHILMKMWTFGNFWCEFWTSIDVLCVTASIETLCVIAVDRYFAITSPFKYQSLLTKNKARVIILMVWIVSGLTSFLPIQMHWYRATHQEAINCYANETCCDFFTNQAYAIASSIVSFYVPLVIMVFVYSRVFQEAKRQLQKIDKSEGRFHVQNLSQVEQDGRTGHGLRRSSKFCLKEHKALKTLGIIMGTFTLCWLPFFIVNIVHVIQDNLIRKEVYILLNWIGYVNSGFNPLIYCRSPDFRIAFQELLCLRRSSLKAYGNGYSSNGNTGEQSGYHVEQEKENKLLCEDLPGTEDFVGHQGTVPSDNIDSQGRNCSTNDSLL
# Ecoli rRNA inh: inhibits bacterial ribosomal RNA function over humanized ribosomes; AID 720706; GFP signal change (wild-type ribosome), % (concentration not given with the values); hit rate 1.6% among 350,000; E. coli WT GFP vs humanized-ribosome RFP mutants, fluorescence, 24 h; active compounds read low; DMSO median 0, no signal -100;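 active = significant combined selectivity score with lowered wild-type GFP, culture density cut under 30%, mutant RFP and density less affected; inactive = any of these conditions unmet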; note: one replicate is shown; some compounds called inactive have numbers as strong as hits
# Ecoli rRNA inh OD600: second read-out of Ecoli rRNA inh, no call of its own (marks repeat the call); OD600 change, %; measured here: OD600 growth;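 optical density of the mix in the first replicate; 0 = DMSO median and -100 = no signal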
# Ecoli rRNA inh RFP: also measured in Ecoli rRNA inh; calls as there; RFP signal change, %; measured here: RFP humanized mutant strains;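 first replicate; 0 = DMSO median and -100 = no signal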
# Numbers without * were called inactive; ? = inconclusive; / = not tested or not shown.
SMILES,Bfl-1 A1 inh,Beta cell apopt,ALR inh,Calb FLC,LANA-H2A inh,T cruzi repl,Beta2AR agonist,Ecoli rRNA inh,Ecoli rRNA inh OD600,Ecoli rRNA inh RFP
O=C(NC1CCCCC1)C(c1ccccc1)N(C(=O)c1csnn1)C1CCCC1 (centres undefined),-0.5,-3.2,/,-4.2,-1.0,9.2,-2.5,-1.7,-8.4,3.9
NC(=O)C1CCN(C(=O)c2ccc(Oc3ccccc3)cc2)CC1,-0.7,2.4,-8.6,-5.8,-3.4,-1.4,-14.5,1.6,-3.0,-3.5
O=C(O)C1=C[C@H](c2ccccc2)C[C@H](OCc2ccc(CO)cc2)O1,0.9,-6.1,3.5,-2.7,-0.4,-8.9,-11.9,13.4,4.8,-3.0
Cc1ccc(CNC(=O)C2(NC(=O)Nc3ccc(C)cc3)CCCCC2)cc1,0.0,/,-6.5,9.8,-1.4,-5.8,4.4,/,/,/
Cn1c(=O)oc2cc(S(=O)(=O)N3CCC(C(=O)N4CCN(c5ccccc5)CC4)CC3)ccc21,1.3,-1.2,4.1,/,6.4,/,-4.3,-1.1,-7.4,3.5
CC1CN(C(=O)/C(C#N)=C2\N=C(NC(=O)c3ccc(F)cc3)c3ccccc32)CC(C)O1 (centres undefined),-0.2,-0.7,-1.4,-4.4,-3.1,1.5,-3.7,/,/,/
Cc1cc(NS(=O)(=O)c2ccc(NC(=O)COc3ccc(Br)cc3)cc2)nc(C)n1,0.2,-8.0,10.6,-6.4,-1.2,-11.0,13.6,-14.5,-42.7,-5.7
Cc1ccc(C(=O)CSc2nnc(-c3snnc3C)n2C2CC2)cc1,0.2,5.6,5.3,12.6,-1.4,-8.4,-3.0,13.7,5.7,-2.1
COC(=O)[C@]1(Cc2ccccc2)N[C@H](c2ccc(SC3CCCCC3)c(OC)c2)[C@@H]2C(=O)N(C)C(=O)[C@@H]21,-0.1,-2.5,-15.9,/,4.6,/,-1.3,7.2,-8.7,-0.5
CCC1(CC)C(=O)C2=C3C1[C@H](C(=O)OC)CC(C(=O)OC)C[C@H]3n1c(=O)n(C)c(=O)n1[C@H]2C (some centres undefined),-1.5,-2.1,2.1,-1.2,0.3,-2.7,0.8,9.7,8.9,6.0
COc1cc(S(=O)(=O)N2CCOCC2)ccc1NC(=O)COc1ccc(N(C)S(=O)(=O)c2ccc(C)cc2)cc1,0.5,0.9,-9.2,6.8,-4.4,40.8,0.8,3.5,12.3,0.7
CCOC(=O)c1c(C)[nH]c(C)c1S(=O)(=O)NC1CCN(C(=O)OCC)CC1,-0.1,/,-2.3,-5.1,2.8,-12.2,-5.2,5.1,10.0,-1.4
Nc1ncnc(Nc2ccccc2Cl)n1,-0.1,-5.7,/,-0.2,-2.4,-10.5,-5.6,/,/,/
Cc1[nH]n(-c2ccccc2)c(=O)c1C(c1ccc(C(=O)O)cc1)c1c(C)[nH]n(-c2ccccc2)c1=O,0.1,-1.4,18.1,-10.4,-1.5,0.4,-1.6,-18.8*,4.9*,2.3*
COc1ccccc1/C=C/CN1CCCCC1,0.2,-16.1,-3.4,-7.8,-0.5,7.2,-7.8,21.2,21.8,6.0
COc1ccc(-c2nnc(SCCC(=O)O)n2-c2ccccc2)cc1OC,/,/,/,29.7,/,-9.3,0.6,3.7,1.0,-5.7
O=C(Nc1cccnc1)C1CC(=O)N(c2ccc(F)cc2)C1 (centres undefined),0.1,-4.9,-6.3,-1.2,-0.4,-7.3,13.4,3.3,6.4,-0.3
O=C(Nc1cc(Cl)ccc1N1CCOCC1)c1cccnc1Cl,0.4,1.9,-5.1,-44.4,1.1,-21.3,-1.1,1.7,2.2,1.0
Cn1c(SCCOc2ccccc2Cl)nnc1-c1cccs1,0.2,19.2,-5.4,-11.4,5.1,-2.2,-20.2,/,/,/
Cc1ccc(C(=O)N(Cc2nnc(-c3ccc(Cl)cc3)o2)C2CC2)o1,0.0,2.6,-7.9,/,2.6,/,-3.2,1.1,-22.9,0.0
CCOC(=O)N1CCN(CCC(=O)Nc2ccccc2OC)CC1,0.0,-7.9,-4.0,-5.4,-0.9,-3.3,-1.8,/,/,/
Cc1ccc(C(=O)NCc2ccco2)cc1,-1.1,-1.7,13.0,13.6,-2.4,1.2,2.7,11.1,-2.0,1.7
CCCCn1c(=N)n(CC(=O)c2ccc([N+](=O)[O-])cc2)c2ccccc21,1.7,3.7,24.1,42.1,-4.2,3.3,/,3.4,4.8,-0.1
O=S(=O)(Cc1ccccc1)N1CCN(Cc2ccccc2)CC1,0.0,-7.8,4.2,9.8,-0.3,3.0,-6.2,/,/,/
O=C(COc1ccccc1Cl)NCCc1ccc2c(c1)OCCO2,0.2,-8.5,/,-1.1,-7.4,-4.7,-4.8,-17.6,-6.9,14.2
# (further entries)
SMILES,Bfl-1 A1 inh,Beta cell apopt,ALR inh,Calb FLC,LANA-H2A inh,T cruzi repl,Beta2AR agonist,Ecoli rRNA inh,Ecoli rRNA inh OD600,Ecoli rRNA inh RFP
c1ccc(C(Cc2nc(-c3cccnc3)no2)c2ccccc2)cc1,0.4,1.9,-0.9,-1.3,0.0,22.2,6.0,/,/,/
Cc1cc(C)n(-c2ccc(C(C)C)cc2)c(=O)c1C#N,0.5,-5.1,-3.5,-14.7,2.3,-9.3,-5.0,15.6,10.7,0.7
CCC(=NCCN1CCNCC1)C1=C(O)CC(C)(C)CC1=O,-0.4,-9.1,0.5,-7.5,-2.4,14.6,-3.4,14.4,9.6,-0.8
COc1ccc(/C(N)=N/OC(=O)c2ccc3c(c2)OCO3)cc1,-4.6,-6.1,0.4,-8.4,-3.5,11.4,-0.7,-4.5,-3.5,-12.7
CCOC(=O)c1ccc2c(c1)C1C=CCC1C(C(=O)O)N2 (centres undefined),0.2,6.0,9.6,/,10.9,/,/,/,/,/
Cc1ccc(S(=O)(=O)/N=C(/Nc2ccccc2C)c2ccccc2)cc1,0.2,-5.2,-1.7,/,0.8,/,-4.2,-23.0*,-10.7*,7.1*
CCOc1ccc(N2CC(C(=O)Nc3ccccc3C(=O)NC3CC3)CC2=O)cc1 (centres undefined),0.0,/,2.0,-2.8,11.1,-3.7,5.9,1.6,0.1,-0.5
O=c1[nH]c(CN2CCN(Cc3ccccc3)CC2)nc2scc(-c3ccccc3)c12,0.5,5.6,-2.2,-5.0,2.7,51.3,1.0,-9.0,-4.9,5.0
Cc1ccc(NC(=S)NCC(C)C)cc1,0.5,-7.3,52.1,6.3,-5.2,-15.6,1.3,/,/,/
O=[N+]([O-])c1cccc(C(=Nc2ccccc2Cl)NO)c1,0.2,2.3,26.8,?,3.0,10.8,7.6,/,/,/
CC(OC(=O)CN1C(=O)c2ccccc2C1=O)C(=O)NC1CCCC1 (centres undefined),-1.8,0.4,-2.6,-17.7,2.4,-1.6,4.5,3.3,5.3,-4.5
Cn1nc(C(=O)Nc2ccc(S(=O)(=O)N3CCCCC3)cc2)c2ccccc2c1=O,0.1,5.2,-0.9,-0.6,-8.6,11.5,8.1,-21.4*,-17.2*,-0.3*
COC(=O)c1c(NC(=O)CN(c2ccc(C)c(C)c2)S(C)(=O)=O)sc2c1CCCC2,-0.4,6.3,/,?,/,24.0,-10.0,/,/,/
CCOC(=O)Cn1nc(/C=C/c2ccc(C)cc2)ccc1=O,-1.1,-4.0,-13.2,-4.6,-1.1,-3.1,5.6,/,/,/
CCOc1cc(C=O)ccc1OCCCN1C(=O)NC(C)(C)C1=O,/,-17.3,-2.7,-5.6,0.6,-15.7,3.3,/,/,/
CC1(C)CC(=O)C(N=Nc2cc(S(=O)(=O)N3CCOCC3)ccc2Cl)=C(O)C1,0.5,10.1,-12.1,0.3,-4.5,-15.3,/,/,/,/
Cc1cccc(CCN(C(=O)c2snc(C(N)=O)c2N)C(C(=O)NCC2CCCO2)c2ccc(F)cc2)c1 (centres undefined),/,/,/,-2.2,/,5.6,1.2,-6.3,-16.0,3.4
COc1cc(CNC(C)C23CC4CC(CC(C4)C2)C3)ccc1OCC(=O)NC(C)(C)C (centres undefined),0.0,-0.5,-3.4,5.0,4.6,24.0,6.9,2.1,-0.8,7.9
O=C(NCCOc1ccccc1Cl)c1cccc2c1C(=O)c1ccc(Cl)cc1S2(=O)=O,0.7,5.7,2.8,/,-2.1,/,3.9,4.8,4.4,-5.0
COc1ccc(C(=O)NCCS(=O)(=O)N2CCc3ccccc3C2)cc1,-0.5,/,-2.5,-16.1,-2.0,-14.6,-13.8,3.2,-1.4,0.5
N#Cc1c2n(c3c(N)ncnc13)CCCCC2,-0.3,-3.6,-7.1,-0.2,-2.4,1.1,16.0,2.4,-11.2,-2.2
O=C(C1CCN(S(=O)(=O)c2cccnc2)CC1)N1CCN(c2ccccc2Cl)CC1,-0.7,3.6,-4.2,-1.4,6.0,4.5,2.6,/,/,/
Nc1nnc(SCc2cccc(C(F)(F)F)c2)s1,0.6,-8.2,-15.7,-18.6,-6.5,-6.0,1.5,/,/,/
COc1ccc(-n2nc(C(=O)N(C)C)nc2-c2ccccc2)cc1,-0.2,-3.8,-2.8,35.8,7.9,-21.8,-1.4,3.1,9.5,2.0
CCCNC(=S)Nc1ccc(CC(=O)OC)cc1,0.4,-1.8,2.2,26.8,-1.1,-5.3,-5.6,2.8,6.7,0.7
# Other structures follow.
SMILES,Bfl-1 A1 inh,Beta cell apopt,ALR inh,Calb FLC,LANA-H2A inh,T cruzi repl,Beta2AR agonist,Ecoli rRNA inh,Ecoli rRNA inh OD600,Ecoli rRNA inh RFP
CCN(CC)c1ccc(N2C(=O)/C(=C/c3ccccn3)SC2=S)cc1,-1.1,6.1,-11.7,0.6,-5.3,-21.1,-0.7,8.1,2.6,-1.3
Cc1nn(C)cc1C(=O)Nc1ccc2c(c1)OCCO2,-0.5,-4.0,/,5.4,-0.7,-7.9,-3.5,0.5,16.3,-1.4
COC(=O)c1sc(NC(=O)CCCn2nc([N+](=O)[O-])cc2C)c(C(=O)OC)c1C,0.3,1.9,-5.6,-4.1,3.9,31.7,-8.2,/,/,/
CCOc1ccc(-n2c(C)nc3cc(C(=O)NCCN4CCOCC4)ccc32)cc1,0.0,-0.5,-11.5,-9.3,-1.2,/,11.1,/,/,/
S=C(NCc1ccco1)Nc1ccc(Oc2ccc(Cl)cc2)cc1,-0.7,-3.1,/,-2.4,-6.6,-13.4,-1.3,10.2,7.5,19.1
CC1CCCN(CCCNC(=O)CN2C(=O)COc3ccccc32)C1 (centres undefined),-0.1,-0.7,-0.4,-0.6,-1.0,-2.9,0.2,12.4,7.8,-0.4
C/C(=N\NC(=S)NC(C)C)c1ccc2c(c1)OCCO2,0.8,-1.6,46.0,1.5,0.6,-0.7,-2.5,-5.1,0.2,-1.4
CCN(CC)c1ccc(/C=N/NC(=O)Nc2nonc2N)cc1,-1.4,/,98.5*,-3.3,-1.6,14.9,5.7,/,/,/
COc1ccc(NS(=O)(=O)c2ccc(N/N=C/c3ccc(N4CCOCC4)cc3)c([N+](=O)[O-])c2)cc1,0.3,-3.3,-0.7,0.2,3.1,3.5,-17.6,3.7,4.9,8.0

# Screening data as filed in PubChem.

# This is a subset (hit frequency here may not be typical).
